Rango dissoc inh = qHTS Assay for Inhibitors of RanGTP induced Rango (Ran-regulated importin-beta cargo) - Importin beta complex dissociation. 0.071% of 340,000 active. Biochemical FRET Rango-importin beta, RanGTP-induced dissociation. Snurportin-1 (Homo sapiens) + GTP-binding nuclear protein Ran (Homo sapiens) + Importin …. AID 540253, 2011. Potency, µM (series often up to 46.1 µM), inactives show at the top dose activity change, negative = inhibition; active means falling FRET ratio curve, often poorly fitted, with flat reads before Ran was added; inconclusive means other falling curves, or compound fluorescence or quenching; inactive means flat or rising ratio curve;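 also: potency is read from the fitted curve at half-maximal effect; % of control where 0% means no effect; nearly all actives have a fitted effect of over 45% in size; -100% = wells without RanGTP and RCC1; the record marks most hits as doubtful in a second field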
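Compounds sat 5 min at room temperature with 0.1 uM Rango biosensor plus 0.25 uM importin beta, then FRET pre-read. RanGTP-RCC1 (0.6 uM Ran, 2mM GTP, 0.2 uM RCC1) added for 45 min, and the CFP/YFP post-read measured blocked complex dissociation.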
miR-21 reporter = qHTS Assay for Modulators of miRNAs and/orActivators of miR-21 | HeLa miR-21 FLuc reporter, luciferase, 48 h | 340,000 tested, under 10 active | Potency, µM (series often up to 38.3 µM), without a hit: top-dose reporter change, positive = more light; active = well fitted rising curve with a large enough effect; inconclusive = small, poorly fitted or top-dose-only effect; inactive = no such curve, though single readings can be large or run the other way;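 also: % of control where 0% means no effect; miR-21 action dims this reporter so a rising signal means less miR-21 action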
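Compounds were titrated across several concentrations (up to approximately 40 uM) and incubated 48 hours with HeLa miR-21-FLuc reporter cells (miR-21 target sequence downstream of FLuc, endogenous miR-21). Readout was firefly luciferase luminescence after lytic detection reagent.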
GLA inh pH 4.5 = qHTS Assay for Inhibitors of Human alpha-Galactosidase at pH 4.5 | Alpha-galactosidase A (Homo sapiens), P06280 | purified enzyme, 4-MU-alpha-Gal fluorescence, pH 4.5 | activity change, negative = inhibition, % at 105 µM | 230,000 tested, under 10 active; inconclusive = small, poorly fitted or top-dose-only inhibition, or a rising curve; inactive = flat fitted curve, though single readings scatter; no compound was filed as active;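 also: 0% = full activity with enzyme and -100% = basal without enzyme; dose as in the result columns while the protocol names 77 µM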
Rango complex inh = qHTS Assay for Inhibitors of Rango (Ran-regulated importin-beta cargo) - Importin beta complex formation. Importin subunit beta-1 (Homo sapiens), Q14974. Rango CFP/YFP FRET sensor + importin beta, 45 min. Potency, µM (series often up to 92.2 µM), without a hit: at the top dose inhibition of complex formation. 0.031% of 340,000 active. AID 540263, 2011; active = rising FRET ratio curve, often small or poorly fitted; inconclusive = mostly compound fluorescence or quenching in the first reads; inactive = flat curves in all reads;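 also: potency is read from the fitted curve at half-maximal effect; 0% = DMSO wells and 100% = buffer wells lacking importin beta; nearly all actives have a fitted effect of over 15% in size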
Target sequence (Q14974 whole entry, looked up): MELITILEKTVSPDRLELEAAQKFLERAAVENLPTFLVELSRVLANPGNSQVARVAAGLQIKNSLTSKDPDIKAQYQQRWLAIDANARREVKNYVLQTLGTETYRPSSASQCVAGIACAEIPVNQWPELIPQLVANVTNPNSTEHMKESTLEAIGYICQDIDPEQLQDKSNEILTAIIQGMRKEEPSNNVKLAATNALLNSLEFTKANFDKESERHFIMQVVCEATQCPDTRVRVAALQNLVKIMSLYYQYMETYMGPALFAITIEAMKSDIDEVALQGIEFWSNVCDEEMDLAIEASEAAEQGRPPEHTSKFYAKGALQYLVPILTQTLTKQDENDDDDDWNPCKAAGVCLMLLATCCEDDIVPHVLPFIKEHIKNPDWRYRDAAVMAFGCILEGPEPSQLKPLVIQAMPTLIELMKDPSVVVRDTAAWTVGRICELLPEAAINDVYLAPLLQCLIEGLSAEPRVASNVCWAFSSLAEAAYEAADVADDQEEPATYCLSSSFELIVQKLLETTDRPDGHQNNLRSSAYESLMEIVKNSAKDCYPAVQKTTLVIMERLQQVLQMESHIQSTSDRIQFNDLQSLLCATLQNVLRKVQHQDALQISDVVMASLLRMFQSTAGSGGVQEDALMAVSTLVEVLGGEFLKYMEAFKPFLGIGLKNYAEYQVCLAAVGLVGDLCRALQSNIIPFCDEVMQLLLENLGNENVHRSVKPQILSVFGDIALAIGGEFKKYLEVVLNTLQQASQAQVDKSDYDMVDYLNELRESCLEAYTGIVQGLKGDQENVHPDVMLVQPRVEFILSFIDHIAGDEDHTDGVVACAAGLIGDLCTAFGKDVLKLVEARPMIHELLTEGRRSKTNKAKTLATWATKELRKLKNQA
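FRET biosensor Rango (snurportin 1 IBB between N-terminal EYFP and C-terminal Cerulean), 50 nM in PBS/1 mM DTT/0.02% Tween-20/0.1% BSA, preincubated 5 min RT with compound; 0.125 microM importin beta added, 45 min RT, CFP/YFP FRET ratio read.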
* hit, by the source's call; ? = inconclusive; · = no result given; & = joins results of further samples; [ ] = dose if it differs, or a comment. Some of the compounds tested (hit frequency here may not be typical).

SMILES	Rango dissoc inh	miR-21 reporter	GLA inh pH 4.5	Rango complex inh
CCCc1[nH]nc2c1C1(C(=O)N(C(C)C)c3ccccc31)C(C#N)=C(N)O2 (stereo not given)	-17%	-7%	-8	0.8%
CC(=O)c1ccc(N2CCN(C(=O)C3CCN(S(=O)(=O)Cc4ccccc4)CC3)CC2)cc1	0%	-1%	-2	0.2%
CC(C)c1ccc(CCNC(=O)c2cccc(S(=O)(=O)N3CCN(C)CC3)c2)cc1	3%	16%	·	-3.0%
COc1ccc(S(=O)(=O)NC(C(C)C)C(C)C)cc1OC	3%	0%	-6	-0.1%
CS(=O)(=O)c1ccc2nc(NC(=O)CC3CCCC3)sc2c1	?	-22%	2	-3.5%
CC(C)NC(=S)N1CCC(Cc2ccccc2)CC1	6%	5%	2	-2.6%
COc1cc(C(=O)NCCCNc2nc3cc(C)c(C)cc3cc2C#N)cc(OC)c1OC	?	-12%	18	?
CCOC(=O)c1cnc2c(C)c(-c3ccccc3)[nH]n2c1=O	-22%	-10%	-1	?
CCOC(=O)CN(C(=O)CSc1nnc2c(n1)[nH]c1ccc(OC)cc12)c1ccc(F)cc1	18%	-4%	-7	-0.7%
CC1=C(C)C(=O)N(CCC(=O)O)C1=O	-10%	3%	10	-0.6%
CCOC(=O)C1=C(C)N=C2SCCC(=O)N2[C@@H]1c1cccs1	18%	7%	4	0.6%
Cc1ccc(CCNC(=O)c2nc(CS(=O)(=O)c3ccc(Cl)cc3)no2)cc1	7%	15%	·	-0.6%
O=S(=O)(Nc1nnc(C(F)(F)F)s1)c1ccc(Cl)cc1	-2%	0%	·	-0.2%
O=C(Nc1ccn(Cc2ccccc2F)n1)c1ccc(COc2ccccc2Cl)cc1	7%	26%	-6	-2.3%
Cc1cc(-c2csc(N)n2)c(C)n1Cc1ccccc1	-19%	-5%	1	?
COc1ccc(/C=C/C(=O)ONC2=NCCCCC2)cc1OC	8%	-2%	10	-2.4%
Cc1ccc(N/N=C(\Cc2nc3ccccc3[nH]2)c2ccccc2)cc1	?	-7%	0	?
COc1ccc(OC)c(-n2c(C)ccc2-c2ccc(S(C)(=O)=O)cc2)c1	-17%	-10%	-2	6.4%
Cc1ccc2[nH]c3c(=O)n(CC(=O)N4CCN(C)CC4)ncc3c2c1	-10%	1%	·	1.5%
Cc1ccc2c(c1)S(=O)(=O)N(C)C(c1ccccc1)=C2	-10%	·	·	1.8%
Cc1ccc(OCCCCCCN2CCNCC2)cc1	-5%	·	·	2.3%
CC(C)c1nc(NCCO)c(C#N)c2c1CCCC2	8%	13%	-2	0.1%
COc1ccc(NC(=O)CN2CCC(NC(=O)c3ccco3)CC2)c([N+](=O)[O-])c1	1%	0%	·	1.4%
OCCC1CN(Cc2nc(-c3ccccc3)cs2)CCN1C1CCCC1 (stereo not given)	-6%	-5%	-14	2.0%
Cn1c(=O)c2c(nc(CN3CCOCC3)n2CC(O)CO)n(C)c1=O (stereo not given)	-4%	1%	2	-1.0%

More compounds:
SMILES	Rango dissoc inh	miR-21 reporter	GLA inh pH 4.5	Rango complex inh
COCCN(C(=O)CCc1ccccc1OC)c1nnc(-c2cccnc2)s1	8%	-15%	-8	0.3%
CCCN(CC1CC1)C(=O)COC(=O)c1oc2ccc(OCC)cc2c1C	6%	·	·	-0.8%
CCCCSCc1nc2ccccn2c1Br	-17%	-39%	9	?
O=C(O)/C=C/C(=O)Nc1ccccc1C(=O)OCC(=O)c1ccc2c(c1)OCCO2	-4%	-26%	-7	-0.9%
CC(C)NC(=O)NC(=O)COC(=O)c1cccc(OC(F)F)c1	0%	2%	1	3.1%
Cc1nn(Cc2ccccc2)c(C)c1NC(=O)CCCn1nc(C)c([N+](=O)[O-])c1C	0%	-7%	0	3.2%
O=C(Cn1nnc(-c2ccc(Cl)cc2)n1)NCCC1=CCCCC1	-5%	-7%	8	?
O=C(c1ccc(Cl)cc1[N+](=O)[O-])N1CCN(c2ccccn2)CC1	5%	0%	2	0.2%
COc1ccc(NC(=O)c2nc[nH]c2C(=O)N2CCN(c3ccccc3)CC2)cc1	-6%	-3%	1	0.6%
CCc1ccc(N2CC(C(=O)OCC(=O)Nc3ccc(C(C)=O)cc3)CC2=O)cc1 (stereo not given)	-7%	·	·	-0.4%
CCC(=O)c1cc2c(cc1NC(=O)c1ccc(C)cc1)OCCO2	2%	-16%	-4	2.3%
Cc1nc2n(COCCO)cnn2c(=O)c1Br	-5%	-1%	5	5.9%
CC(=O)[C@H]1[C@H]([C@H](O)[C@H](O)CO)O[C@](O)(C(=O)O)C[C@@H]1O	-6%	·	·	-0.8%
NNC(=O)c1ccc(COc2ccc3c(c2)CCC3)cc1	-6%	-32%	-29	-1.0%
CC(C)(C)c1ccc(/C=C/C(=O)NC2=NCCS2)cc1	21%	-41%	-19	?
Cc1noc(C)c1COc1cccc(C(=O)Nc2ccc(Br)cc2F)c1	-10%	·	·	1.2%
CCCCP(=O)(CCCC)c1ccccc1C(=O)O	27%	7%	6	-1.6%
COCCCNC(=O)CSc1c2c(nc3ccc(Cl)cc13)CCCC2	11%	20%&18%	1	4.2%
Nc1nc(SC23CC4CC(CC(C4)C2)C3)ns1	8%	0%	1	2.3%
Cc1noc(NS(=O)(=O)c2ccc(NC(=O)CCC3CCCC3)cc2)c1C	-9%	-2%	9	-3.7%
COc1ccccc1CNC(=O)CN(C)S(=O)(=O)c1cccc2cccnc12	-5%	-5%	5	0.1%
Nc1nonc1-c1nc2ccccc2n1Cc1ccc(F)cc1Cl	7%	-4%	3	?
COc1cccc(CCNC(=O)CCc2nnc(Cc3cc(OC)ccc3OC)o2)c1	-1%	-22%	·	-4.0%
Nc1c(Cl)ncnc1N1CCCC1	-15%	-2%	14	1.3%
CCOc1ccc(C(=O)NCc2ccc3c(c2)OCO3)cc1OCC	-16%	-2%	·	-1.2%

Six of the compounds above, with values under each structure:
Screens in order – Rango dissoc inh	miR-21 reporter	GLA inh pH 4.5	Rango complex inh
- COCCN(C(=O)CCc1ccccc1OC)c1nnc(-c2cccnc2)s1
  8%	-15%	-8	0.3%
- CCCN(CC1CC1)C(=O)COC(=O)c1oc2ccc(OCC)cc2c1C
  6%	·	·	-0.8%
- CCCCSCc1nc2ccccn2c1Br
  -17%	-39%	9	?
- O=C(O)/C=C/C(=O)Nc1ccccc1C(=O)OCC(=O)c1ccc2c(c1)OCCO2
  -4%	-26%	-7	-0.9%
- CC(C)NC(=O)NC(=O)COC(=O)c1cccc(OC(F)F)c1
  0%	2%	1	3.1%
- Cc1nn(Cc2ccccc2)c(C)c1NC(=O)CCCn1nc(C)c([N+](=O)[O-])c1C
  0%	-7%	0	3.2%

New compounds follow.
SMILES	Rango dissoc inh	miR-21 reporter	GLA inh pH 4.5	Rango complex inh
Cc1ccc(N2CC(C(=O)Nc3cccnc3)CC2=O)cc1C (stereo not given)	-15%	-2%	·	-4.4%
COCCN(C(=O)CN1CCN(S(=O)(=O)c2ccc(F)cc2)CC1)c1c(N)n(Cc2ccccc2)c(=O)[nH]c1=O	-3%	-7%	1	5.5%
O=C(O)c1ccccc1C(=O)c1ccc(Sc2ccc(Cl)cc2)c([N+](=O)[O-])c1	13%	3%	-4	-5.6%
O=C(NC1CCC(O)CC1)c1ccc2c(c1)S(=O)(=O)N=C1CCCCCN12 (stereo not given)	-12%	·	·	0.9%
O=C(O)c1ccc(N2C(=O)/C(=C/C=C/c3ccccc3)SC2=S)cc1	-11%	?	5	-0.2%
O=C(Nc1ccc(F)c(Cl)c1)NC1CC1	6%	-2%	-9	-0.2%
COc1ccccc1N1CCN(CC(=O)NCC2CCCO2)CC1 (stereo not given)	-1%	-8%	7	-1.4%
CC(=O)Nc1ccc(Nc2cc(C(C)C)nc3c(-c4ccccc4)c(C)nn23)cc1	-3%	10%	-21	4.4%
Cc1ccc2[nH]c(=O)c(CN(CC3CCCO3)C(=S)Nc3ccccc3)cc2c1 (stereo not given)	-14%	1%	-1	0.1%
C=CCN(c1ccccc1)S(=O)(=O)c1cccc(C(=O)Nc2ncccc2C)c1	2%	·	·	2.7%
CCOc1cc(/C=N/NC(=O)C(C)Sc2ccccc2)ccc1O (stereo not given)	-5%	2%	3	-0.3%
COc1ccc(OCc2cc(C(=O)NC3CCOCC3)no2)c2ccccc12	-2%	-10%	·	1.0%
COc1ccccc1N(C)S(=O)(=O)c1ccc(C(=O)OCC(=O)N2CCC2)cc1	2%	23%	-1	-0.6%
Cc1ccc(C(=O)CSc2nc3ccccc3c(=O)[nH]2)cc1C	-5%	-10%	-12	-1.1%
COc1ccc2c(CC(=O)OCC(=O)Nc3ccc(S(N)(=O)=O)cc3)coc2c1	-8%	2%	4	-0.2%
CC(=O)n1nc(-c2ccc(C)cc2)nc1NCc1ccco1	0%	-42%	-2[21.1 µM]	2.1%
Cc1ccsc1C(=O)OCc1nc2ccsc2c(=O)[nH]1	-7%	·	·	2.3%
Cn1nnnc1Sc1ncnc2scc(-c3ccc(F)cc3)c12	-19%	?	·	10%
O=C(CN1C(=O)NC(Cc2ccccc2)C1=O)Nc1ccc(F)cc1 (stereo not given)	-2%	-4%	0	3.7%
CC1CCc2c(sc(NC(=O)CCc3nc4ccccc4c(=O)[nH]3)c2C#N)C1 (stereo not given)	-29%	·	·	-3.6%
CCN(CC)CCN(Cc1cc2cc3c(cc2[nH]c1=O)OCCO3)C(=O)NC1CCCCC1	3%	-13%	9	-0.3%
CC(C)(O)C#Cc1ccc(C(=O)NCCc2ccc(S(N)(=O)=O)cc2)cc1	0%	7%	-4	-1.0%
O=C(NC12CC3CC(CC(C3)C1)C2)C1CC(=O)N(c2ccc(Br)cc2)C1 (stereo not given)	0%	4%	-2	3.8%
Cc1ccc(C)c(CSC2=NCCN2S(=O)(=O)c2ccccc2)c1	3%	0%	·	4.2%
O=C(Cc1ccc(F)cc1)NCC1CCCO1 (stereo not given)	0%	-5%	6	2.9%

Arranged by the number under miR-21 reporter (smallest number first): 3 of the compounds above
SMILES	Rango dissoc inh	miR-21 reporter	GLA inh pH 4.5	Rango complex inh
COc1ccccc1N1CCN(CC(=O)NCC2CCCO2)CC1 (stereo not given)	-1%	-8%	7	-1.4%
O=C(Nc1ccc(F)c(Cl)c1)NC1CC1	6%	-2%	-9	-0.2%
O=C(O)c1ccccc1C(=O)c1ccc(Sc2ccc(Cl)cc2)c([N+](=O)[O-])c1	13%	3%	-4	-5.6%

Next part.
SMILES	Rango dissoc inh	miR-21 reporter	GLA inh pH 4.5	Rango complex inh
O=C(c1ccc(Cl)c(Cl)c1)N1CCN(Cc2ccc3c(c2)OCO3)CC1	-7%	6%	·	0.2%
COCCOc1ccc(C(F)(F)F)cc1NC(=O)COC(=O)Cc1c[nH]c2ccccc12	3%	·	·	1.3%
COc1cc2[nH]c(=S)n(CCN3CCOCC3)c(=O)c2cc1OC	-5%	1%	0	0.0%
COc1ccc(/C=C/C(=O)OCC(=O)NC2CCCC(C)C2C)cc1 (stereo not given)	8%	·	·	2.5%
Cc1ccccc1NC(=O)C1CCCN(C(=O)Nc2ccc(F)cc2)C1 (stereo not given)	-9%	5%	·	-2.0%
O=C(Nc1ccccc1C(=O)NCCN1CCOCC1)c1cccc([N+](=O)[O-])c1	-8%	-9%	·	5.0%
CN1CCN(c2ccccc2NC(=O)c2c(F)cccc2F)CC1	-13%	-2%	4	-2.2%
O=C(c1ccc(F)c(S(=O)(=O)N2CCOCC2)c1)N1CCN(c2ccc(F)cc2)CC1	8%	·	·	-1.6%
COc1ccc(C(C(=O)NC2CCCC2)N(Cc2cccnc2)C(=O)Cc2cccs2)cc1OC (stereo not given)	3%	7%	·	1.9%
Cc1ccc(CNC(=O)CN(C)S(=O)(=O)c2cnc[nH]2)cc1	2%	-13%	1	-0.8%
O=S(=O)(Nc1ccccc1Br)c1cccs1	17%	-2%	·	-1.1%
COc1ccc(NC(=S)NC(=O)c2ccccc2)cn1	7%	-45%	·	5.0%

Screens as filed in PubChem BioAssay.
